Menin-MLL FL inh: qHTS Assay for Inhibitors Targeting the Menin-MLL Interaction in MLL Related Leukemias: Competition With Fluorescein Labeled MLL-derived Peptide; Fluorescence polarization, fluorescein-MLL peptide displacement from menin; FP activity change, % at 61.4 µM; 290,000 tested, under 10 active; AID 1766, 2009; inconclusive = falling polarisation curve, or a change in total fluorescence; inactive = total fluorescence flat and polarisation flat or rising; no compound was filed as active; the % refers to the polarisation; negative = inhibition;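 further: % of control where 0% means no effect; inhibitors lower the polarisation; unlabelled MLL peptide was the positive control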
Sfp inh: qHTS Assay for Inhibitors of Bacillus subtilis Sfp phosphopantetheinyl transferase (PPTase) | Potency, µM, without a hit: max response, negative = inhibition, usual class: inhibitors | Biochemical Sfp PPTase activity, qHTS | AID 1490, 2009 | 310,000 compounds, 3.5% hits | 4'-phosphopantetheinyl transferase ffp (Bacillus subtilis), Q9F4F7; active means well fitted inhibition curve with a large enough effect; inconclusive means small, poorly fitted or top-dose-only effect, or another doubt; inactive means no such curve, though single readings can be large or run the other way;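 further: the enzyme is Sfp with the accession as filed and its product quenches rhodamine fluorescence; potency means the concentration at half of the fitted maximal effect; 0% = enzyme reaction without inhibitor and -100% = no enzyme wells; top concentration of the series not given in the record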
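After 15 min at room temperature with compound, 15 nM Sfp received 5 uM rhodamine-CoA plus 12.5 uM BHQ-2-ybbR (50 mM Hepes pH 7.6, 10 mM MgCl2). Rate came from the fluorescence difference over 30 min, ex 525/em 598 nm.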
ClpP mod: qHTS Assay for Activators of ClpP. purified B. subtilis ClpP, FRET peptide cleavage, 20 min. Potency, µM (highest dose often 57.5 µM), inactives show at the top dose activity change, negative = active. AID 651965, 2013. 340,000 compounds, 1.9% hits. ATP-dependent Clp protease proteolytic subunit (Bacillus subtilis (strain 168)), P80244; active = well fitted falling curve with a large enough effect; inconclusive = small, poorly fitted or top-dose-only effect; inactive = no such curve, though single readings can be large or run the other way; further: potency means the concentration at half of the fitted maximal effect; the source files actives as falling curves though it sought activators and does not explain the sign; nearly all actives have a fitted effect of over 65% in size; many hits overshoot -100%
Target sequence (P80244 whole entry, looked up): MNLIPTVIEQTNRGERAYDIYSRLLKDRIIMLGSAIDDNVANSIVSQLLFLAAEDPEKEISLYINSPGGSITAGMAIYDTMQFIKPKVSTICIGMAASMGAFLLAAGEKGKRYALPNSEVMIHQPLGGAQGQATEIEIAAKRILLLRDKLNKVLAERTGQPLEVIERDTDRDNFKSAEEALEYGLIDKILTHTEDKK
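Purified B. subtilis ClpP, 10 microg/mL final in Tris/HCl pH8 with KCl, BSA, glycerol and Tween-20, cleaved an Abz/nitrotyrosine-quenched decapeptide. Fluorescence (ex 320, em 430) was read at 0 and 20 min at room temperature. Delta was normalized to 5.8 microM ADEP and DMSO/no-enzyme controls.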
D2 agonist: Beta-Arrestin HTS for Positive Allosteric Modulators of the Human D2 Dopamine Receptor: Agonists. D(2) dopamine receptor (Homo sapiens), P14416. DiscoveRx PathHunter D2 beta-arrestin, luminescence, 90 min; 100% = 57 uM dopamine signal. activation, % (concentration not given with the values). 360,000 compounds, 0.084% hits. AID 624465, 2012; in the data active = activation above about 40%; inconclusive = about 15% to 40%; inactive = below about 15%; further: the text of the record calls up to 30% inactive
Target sequence (P14416 whole entry, looked up): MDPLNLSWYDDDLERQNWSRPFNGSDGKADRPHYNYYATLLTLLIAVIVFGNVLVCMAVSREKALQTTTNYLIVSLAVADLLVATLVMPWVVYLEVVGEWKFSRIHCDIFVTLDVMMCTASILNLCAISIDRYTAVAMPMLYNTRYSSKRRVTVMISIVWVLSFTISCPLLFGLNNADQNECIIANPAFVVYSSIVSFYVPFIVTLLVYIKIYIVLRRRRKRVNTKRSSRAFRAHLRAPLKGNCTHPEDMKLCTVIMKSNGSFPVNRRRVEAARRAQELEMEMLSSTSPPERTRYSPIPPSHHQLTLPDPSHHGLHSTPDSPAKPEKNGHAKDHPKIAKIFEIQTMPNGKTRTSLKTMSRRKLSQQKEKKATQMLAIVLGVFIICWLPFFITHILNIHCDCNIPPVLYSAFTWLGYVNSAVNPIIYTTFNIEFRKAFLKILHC
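Agonist mode: compounds alone added to overnight-plated D2 PathHunter cells for 90 min at 37 C, with 57 uM final dopamine (EC100) defining full response. Beta-arrestin recruitment detected by chemiluminescent reagent, read after 1 h at ambient temperature.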
gsp antagonist: qHTS for Antagonists of gsp, the Etiologic Mutation Responsible for Fibrous Dysplasia/McCune-Albright Syndrome: qHTS; gsp-mutant cells, cAMP HTRF, 30 min; control for the full effect not named in the record; Potency, µM (titrated, usually from 76.9 µM), inactives show top-dose activity change, negative = inhibition, hits mostly inhibitors; 340,000 compounds, 0.4% hits; AID 624288, 2012; active = falling curve of any shape with a large fitted effect; inconclusive = falling curve, mostly with a smaller effect; inactive = flat or rising curve; cell line not stated here;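 further: intracellular cAMP measured with PDE inhibitor Ro 20-1724 present during compound exposure; potency means the concentration at half of the fitted maximal effect; on the % scale 0 is the no-effect control and ±100 the full control effect; nearly all actives have a fitted effect of over 65% in size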
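Cells, 2000/well, grown 16–24 h in DMEM 10% FBS with 0.5 mg/ml G418, then compounds plus […] (300 uM addition stock), 30 min at 37C. cAMP read by HTRF (cAMP-d2 and anti-cAMP antibody-K in lysis buffer) after 30 min RT.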
PINK1 modulator: A Quantitative High throughput Screen to Identify Chemical Modulators of PINK1 Expression; PINK1 immunofluorescence, high-content cytometry, 24 h; Potency, µM (doses to about 76.6 µM), inactives show at the top dose activation (PINK1 increase), usual class: activators; 410,000 compounds, 0.2% hits; AID 624263, 2012; active = well fitted activation curve with a large enough effect; inconclusive = small, poorly fitted or top-dose-only effect; inactive = flat fitted curve, though single readings scatter; cell line not stated here;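 further: potency means the concentration at half of the fitted maximal effect; % of control where 0% means no effect; nearly all actives have a fitted effect of over 65% in size; a mitochondrial uncoupler was the plate control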
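Stable cell line, 250 cells/well, 12 h attachment; compounds pinned at 5 concentrations, 24 h; CCCP control. Fixed with nuclear dye, primary antibodies 12 h at 10 degrees C, secondary plus cell stain; laser-scanning cytometer read.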
gsp agonist: qHTS for Agonist of gsp, the Etiologic Mutation Responsible for Fibrous Dysplasia/McCune-Albright Syndrome: qHTS; 340,000 compounds, 0.13% hits; Potency, µM (highest dose often 76.9 µM), inactives show at the highest dose activation (cAMP increase), actives largely listed as activators; gsp mutant cells, cAMP HTRF, 30 min; control for the full effect not named in the record; AID 624287, 2012; active = well fitted activation curve with a large enough effect; inconclusive = small, poorly fitted or top-dose-only effect, or another doubt; inactive = no such curve, though single readings can be large or run the other way; cell line not stated here;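 further: phosphodiesterase inhibitor Ro 20-1724 added with compounds to block cAMP breakdown; potency means the concentration at half of the fitted maximal effect; nearly all actives have a fitted effect of over 60% in size; about a fifth of the inactives were tested at one dose only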
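Cells in DMEM/10% FBS with G418 were pretreated with compounds in DMSO plus […] (300 uM stock) for 30 min at 37C. cAMP was measured by HTRF (cAMP-d2 plus anti-cAMP antibody-K) after 30 min at room temperature.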
* marks the source's active call; other numbers are inactive results; ? = inconclusive; . = not tested or not shown; & = joins results of further samples; [ ] = dose if it differs, or a comment.

Molecule	Menin-MLL FL inh	Sfp inh	ClpP mod	D2 agonist	gsp antagonist	PINK1 modulator	gsp agonist
O=C1C2C3C=CC(C3)C2C(=O)N1c1n[nH]c(-c2ccccc2)n1 (stereo unspecified)	-0.7	-10%	0.7%	-3.1	10%	-1.3%[38.3 µM]	-10%
Cc1ccc(OC(=O)CCNC(=O)c2ccccc2Cl)c(Br)c1	.	.	.	2.3	-12%	0.6%	8%[15.4 µM]
COc1ccc(-n2c(=O)c(CCC(=O)N(C)Cc3ccccc3C)nc3ccccc32)cc1	1.5	-7%	-1.6%	11	?	0.0%	-21%
Cc1cc(=O)[nH]c(N)n1	0.4	16%	0.2%	-1.4	12%	-1.1%	-2%
Cc1cccc2cc(CN(CC3CCCO3)C(=S)NCc3ccco3)c(=O)[nH]c12 (stereo unspecified)	5.2	50µM*	7.8%	4.7	-2%	5.6%	-1%
N#Cc1nc(-c2cccs2)oc1NCc1ccccc1	4.3	-9%	-0.4%	-2.1	1%	0.3%	-11%
Cc1cccc(OCCNC(=S)NC(=O)c2cccnc2)c1	4.6	-1%	-1.9%	1.5	13%	-0.4%	12%
COc1ccccc1NC(=O)N1CCCC1	-0.2	10%	.	0.3	-11%	-0.8%	23%
CCO[C@H]1OC(C(=O)NC2CC2)=C[C@@H](C2CCCCC2)[C@@H]1CCCO	4.6	14%	-0.5%	-0.1	-7%	8.2%	.
COC(=O)c1ccc(COc2cccnc2[N+](=O)[O-])cc1	1.8	20%	.	-5.4	-9%	-0.1%	-7%[15.4 µM]
CSc1ccccc1OCc1cc(C(=O)N2CCC[C@H]2C(N)=O)no1	2.5	6%	2.1%	1.6	7%	-1.3%	17%
O=C(NCc1ccccn1)c1nnc(Cc2ccc(Cl)cc2)o1	5.9	18%	0.9%	-4.1	4%	-0.7%	11%
CCN(CC)c1ccc(/C=N/NC(=S)NCc2ccco2)cc1	5.3	15%	16µM*	-1.4	0%	1.2%	0%
CNc1ncnc2c1ncn2[C@H]1CN(Cc2cccs2)C[C@@H](CO)O1	.	.	1.1%	4.9	.	-0.5%	.
Cc1c(C(=O)c2cccc(F)c2)c2ccccn2c1CCC#N	-0.8	-27%	.	-5.6	.	-0.2%	-5%[15.4 µM]
COc1cccc(CN(C)C(=O)CSCC(=O)Nc2cccc(C)c2)c1OC	.	.	4.5%	6.5	-21%	0.8%	-64%[inhibitor]
CC(C)[C@H]1COCCS(=O)(=O)N1Cc1cccc(Cl)c1	0.3	9%	0.2%&2.1%	-1.4	5%	-0.9%	5%
O=C(Cn1cc(/C=N/NC(=O)c2cccc(C(F)(F)F)c2)c2ccccc21)Nc1ccc(F)cc1	-1.3	20µM*	52%	0.2	7%	22%[38.3 µM]	5%
CC(=O)c1ccc(OCc2cc(C(=O)N(C)Cc3ccccn3)no2)cc1	.	11%	-1.5%	-4.4	-13%	-0.2%	-1%
CCOC(=O)Sc1nc2ncncc2[nH]1	.	.	-3.2%	-4.1	-1%	-2.7%	15%
CN(Cc1ccc(Cl)c(Cl)c1)C(=O)C1CC(=O)N(c2ccc3c(c2)OCCO3)C1 (stereo unspecified)	.	.	-1.8%	2.0	.	0.3%	-2%
CCOC(=O)C1CCCN(C(=O)c2ccc(OC)cc2OC)CC1 (stereo unspecified)	.	.	2.6%	-2.0	.	1.7%	.
O=C(Nc1ccccc1)c1cc(C2COCCN2C(=O)c2cccs2)on1 (stereo unspecified)	.	.	-2.1%	-5.6	.	0.5%	.
CC[N+](CC)(CC#Cc1ccccc1)CC(=O)c1ccc(Cl)cc1	6.8	1%	1.8%	-8.6	4%	4.7%	22%[15.4 µM]
Cc1ccc(OCC(=O)O/N=C(\N)c2ccccn2)cc1C	0.8	-7%	.	-1.7	1%	1.2%	-1%[15.4 µM]
CCC(CC)C(=O)Nc1nnc(SCC(=O)NC2CCCCC2)s1	-0.4	12%	0.5%	-0.8	-12%	2.1%	12%[15.4 µM]
C/C(CC(=O)NC(C)C)=N\NC(=O)COc1cc(C)c(Br)cc1Br	-0.2	-4%	-1.9%	-2.8	-8%	0.4%	-19%[15.4 µM]
Cc1cc(NC(=O)CSc2nncc(=O)n2N)no1	-0.3	-64%	.	-0.9	3%	0.1%	26%
CC(C)(C)c1ccc(C(=O)O[C@H]2[C@H](Cc3ccccc3)NS(=O)(=O)[C@H]3C[C@@H]4C=C[C@]23O4)cc1	.	.	-2.2%	-6.7	6%	5.8%	22%
O=C(c1csnn1)N1CCC[C@@]2(CCN(c3ccccn3)C2)C1	2.6	2%	.	.	.	0.2%	.
Cc1ccc(-c2nc(CS(=O)(=O)CC(=O)NCCN3CCCC3)c(C)o2)cc1	-2.2	3%	.	-0.1	9%	0.5%	20%
O=C(Nc1ccccc1Cl)NC1(C(=O)NCCCN2CCOCC2)CCCCC1	0.2	8%	6.7%	-4.1	5%	-1.5%	-10%
O=C(/C=C/c1ccc([N+](=O)[O-])cc1)c1cccs1	1.3	6%	-0.3%	-1.6	6%	2.1%	-38%[inhibitor]
CN(c1ccccc1)S(=O)(=O)c1cccc(C(=O)NNC(=O)c2ccccc2)c1	2.1	10%	0.3%	8.1	1%	-1.3%	5%[15.4 µM]
CN(Cc1ccccc1)C(=O)c1nc2ccccn2c1CN1CCC(N2CCOCC2)CC1	0.7	20%	-3.1%	0.3	5%	-0.8%	10%
CC(=O)c1ccc(NC(=S)Nc2ccc3[nH]c(=O)[nH]c3c2)cc1	0.6	1%	0.2%	6.6	6%	-2.0%	-16%
Cc1ccc(C)c(C(=O)COC(=O)c2cccc(N3C(=O)c4c(C)nc5ccccc5c4C3=O)c2)c1	.	1%	-1.0%	2.9	7%	2.5%	-5%[15.4 µM]
O=C(CSC1=NS(=O)(=O)c2cc(F)ccc2N1)Nc1ccccc1F	.	.	1.9%	-3.6	-1%	4.5%	?
CCOC(=O)C1CCCN(C(=S)NC2CCCC2)C1 (stereo unspecified)	-6.5	18%	.	10	-3%	1.0%	-4%
Cc1ccc(SCC(=O)N2CCOCC2)cc1	0.0	-4%	-0.5%	-2.2	1%	1.2%	0%
CC(C)CN1CC(C)C(=O)N(c2ccccc2)C1=O (stereo unspecified)	.	.	0.2%	-0.2	2%	3.3%	-17%
Nc1nc(N2CCCCC2)nc2ccccc12	2.9	4%	18µM*	-3.4	1%	2.7%	-37%[inhibitor]
O=C(Cc1ccccc1)NCCCc1ccccc1	0.0	-16%	-0.6%	-2.6	9%	-1.8%	-7%
COC(=O)CN(C)C(=O)c1ccc2nc(Cc3cccc(Cl)c3)oc2c1	-2.6	-3%	-6.1%	-5.3	-16%	2.8%	1%
O=C(O)c1ccc(S(=O)(=O)c2ccccc2)cc1	2.2	13%	0.4%	2.2	-11%	-0.9%[38.3 µM]	-2%
Cc1cc(Br)ccc1NC(=O)CN(C)C(=O)Cn1c(=O)cnc2ccccc21	.	-7%	-0.7%	0.3	1%	4.4%	-5%[15.4 µM]
O=C(O)c1ccc(N2Cc3ccccc3C2)cc1O	10.0	-15%	-0.4%	-1.4	-15%	.	?
CC(C)CC(=O)NC1(C(F)(F)F)C(=O)N(Cc2ccccc2)C2=C1C(=O)CC(C)(C)C2 (stereo unspecified)	-0.4	27%	-1.6%	-1.4	6%	0.4%	-13%
CC(C)C[C@H]1CNC(=S)N1CC1CCCN1C[C@H](CC(C)C)N1C[C@H](CC(C)C)N(CC2CCCCCC2)C1=S (stereo partly specified)	.	.	0.4%	-2.2	6%	1.9%	.
O=c1[nH]nc(-c2ccc(F)cc2)cc1Cc1ccccn1	3.9	8%	-3.4%	-6.8	0%	0.2%	5%
CC(=O)c1ccc(C(=O)NC2CCCN(Cc3ccccc3F)C2)s1 (stereo unspecified)	.	10%	1.2%	-1.9	12%	1.0%	-4%[15.4 µM]
COc1ccc(CCC(=O)N2CCN(C3CCCCC3)CC2)cc1	-1.6	1%	-0.2%	-1.1	6%	6.5%[38.3 µM]	-7%
CCC(C)NCCOc1cccc(Br)c1 (stereo unspecified)	2.8	-20%	-0.8%	0.7	9%	-1.7%	0%
O=C(Nc1cccc2cccnc12)c1csc([C@@H]2O[C@H](CO)[C@H](O)[C@H](O)[C@H]2O)n1	.	.	-1.6%	-15	.	-0.5%	.
Cc1cc(=O)[nH]c2ccc(S(=O)(=O)NCc3ccccc3)cc12	-0.7	12%	-9.8%	0.3	-12%	3.0%	-13%
CCCCc1c(O)nc(SCC(=O)N2CCOCC2)[nH]c1=O	2.5	10%	0.4%	-0.1	2%	-1.4%	9%

Compound activity: PubChem, National Center for Advancing Translational Sciences (NCATS)

Rows are unselected; about 5.1% have a hit in one of these screens.
